Screening data as filed in PubChem BioAssay.
Shh pathway inh: Hedgehog pathway signaling inhibitors, primary screen, luminescence, Shh-LIGHT2 cells, Gli-luciferase. Shh-LIGHT2 Gli-luciferase reporter, 30 h. inhibition, % (concentration not given with the values). 22,000 compounds, 2.1% hits. AID 2313, 2010;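 active = replicate mean of 65% or more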;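 also: pathway switched on by Shh-conditioned medium diluted 1 in 25 in low serum; 100 nL library stock added to about 40 µL; 0% = median of neutral wells and 100% = positive control level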
YB-1 expr inh: inhibitors of YB-1 gene expression, primary screen, cell-based, fluorescence; delta delta Cp (YB-1 minus CDIP) (concentration not given with the values); 30,000 compounds, 0.37% hits; U2OS, qRT-PCR YB-1 vs CDIP delta delta Cp, 16 h; active compounds read high; zero = DMSO, each unit about twofold;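 active = delta delta Cp rounded down to an integer at or above 3, about 3 SD of DMSO wells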;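 also: higher means less YB-1 transcript or more CDIP transcript relative to DMSO; stock transfer was 100 nL into about 100 µL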
MITF inhib: inhibitors of MITF, primary screen, MITF inhibitor project, cell-based, luminescence; AID 2240, 2010; TRPM1 promoter luciferase, 24 h; inhibition, % (no concentration beside the values); 37,000 compounds, 0.28% hits;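 active = most replicates at 85% or more, or half of them and the mean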;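 also: human melanocyte line stably carrying TRPM1 promoter luciferase reporter; 0% = vehicle wells and 100% = a positive control; the first replicate is given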
PD-1 reversal: activators reversing PD-1 mediated T-cell inhibition, primary screen, luminescence, primary human CD4 T cells, PD-L1 beads. AID 2316, 2010. CellTiter-Glo 96 h. activation, % (test concentration not listed). 29,000 tested, under 10 active;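 active = replicate mean of 50% or more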;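 also: 0% = median vehicle wells and 100% = positive control; 100 nL library stock added to about 50 µL; numbers are from one replicate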
The depositor's hits bear a star; · = not tested or not shown; & = joins results of further samples.

Below each SMILES – Shh pathway inh | YB-1 expr inh | MITF inhib | PD-1 reversal
> CCn1c(SCC(=O)Nc2cccc(C(=O)O)c2)nnc1-c1ccc(Cl)cc1Cl
  · | · | -18.8 | 1.6
> COc1ccccc1NC(=O)CC1C(=O)NCCN1C(=O)Nc1ccc(Cl)c(Cl)c1 (centres undefined)
  · | · | -19.4 | -0.3
> COc1ccc(CN(C)C[C@H]2Oc3ccc(NC(=O)Nc4ccc(OC)cc4)cc3CC(=O)N([C@@H](C)CO)C[C@H]2C)cc1
  13.4 | 0.0569 | 7.4 | ·
> COc1ccc(S(=O)(=O)N(C)C[C@H]2Oc3c(NC(=O)c4cnccn4)cccc3C(=O)N([C@H](C)CO)C[C@@H]2C)cc1
  11.2 | 0.552 | 6.6 | 1.4
> C[C@@H]1CN([C@@H](C)CO)C(=O)c2cccc(NC(=O)c3nc4ccccc4s3)c2O[C@@H]1CN(C)Cc1ccc(-c2ccccc2)cc1
  -30.0 | -0.155 | 8.5 | -2.4
> O=C(Nc1ccccc1)C1CCCCC1
  · | 0.000929 | -3.6 | 0.3
> C[C@H]1CN([C@@H](C)CO)C(=O)c2cccc(NC(=O)c3ccncc3)c2O[C@H]1CN(C)Cc1ccc(Oc2ccccc2)cc1
  37.0 | -0.131 | -13.4 | ·
> C[C@@H]1CN([C@@H](C)CO)C(=O)c2cc(NC(=O)NC3CCCCC3)ccc2O[C@@H]1CN(C)Cc1ccc2c(c1)OCO2
  0.2 | -0.0668 | 2.8 | 0.8
> CCn1c(SCC(=O)Nc2ccc(I)cc2C)nnc1-c1ccccc1
  · | · | 5.0 | 0.3
> C[C@H](CO)N1C[C@H](C)[C@H](CN(C)S(=O)(=O)c2ccc(Cl)cc2)Oc2ccc(NS(=O)(=O)c3ccccc3)cc2C1=O
  · | 0.213 | -12.8 | -3.9
> C[C@@H]1CN([C@H](C)CO)C(=O)c2cc(NC(=O)c3ccncc3)ccc2O[C@H]1CN(C)C(=O)Nc1ccc(C(F)(F)F)cc1
  -4.0 | 0.199 | 5.1 | -1.7
> O=C(CCCN1C(=O)c2ccccc2C1=O)Nc1ccc(Nc2ccccc2)cc1
  · | · | -42.9 | -8.7
> C[C@@H]1CN([C@H](C)CO)C(=O)c2cccc(NS(=O)(=O)c3cn(C)cn3)c2O[C@@H]1CN(C)Cc1ccc(C(F)(F)F)cc1
  -15.2 | 0.136 | -2.3 | 0.7
> C[C@@H]1CN([C@@H](C)CO)C(=O)Cc2cc(NC(=O)Cn3cnnn3)ccc2O[C@@H]1CN(C)Cc1ccncc1
  · | 0.132 | -8.9 | ·
> CC/C=C\C/C=C\C/C=C\C/C=C\C/C=C\C/C=C\CCC(=O)O
  -31.8 | 0.169 | 0.7 | 2.2
> C[C@@H]1CN([C@@H](C)CO)C(=O)c2cc(NC(=O)C3CC3)ccc2O[C@H]1CN(C)S(=O)(=O)c1ccc(F)cc1
  · | 0.282 | -9.6 | -0.2
> COc1ccc(C(=O)N(CC#N)CC#N)cc1
  -14.7 | -0.069 | -12.4 | 0.4
> Cc1cc(OC(=O)C2COc3ccccc3O2)cc(C)c1Cl (centres undefined)
  · | -0.126 | 7.2 | 0.7
> C[C@@H]1CCCCO[C@H](CN(C)Cc2ccc(Cl)c(Cl)c2)[C@@H](C)CN([C@H](C)CO)C(=O)c2cc(NS(=O)(=O)c3ccccc3)ccc2O1
  -5.5 | -0.153 | 39.1 | ·
> O=C(CC1NCCNC1=O)Nc1ccccc1Cl (centres undefined)
  · | · | -8.3 | 0.1
> CC1CCCC2=CC(OC2=O)C(C)(C)CCC1=O (centres undefined)
  12.1 | 0.94 | · | ·
> Cc1noc(C)c1S(=O)(=O)Nc1cccc2c1O[C@H](CN(C)Cc1ccc(Cl)c(Cl)c1)[C@H](C)CN([C@@H](C)CO)C2=O
  -8.4 | 0.517 | 1.3 | ·
> C[C@H]1CN([C@@H](C)CO)C(=O)Cc2cc(NC(=O)Cc3ccccc3)ccc2O[C@@H]1CN(C)Cc1ccc(Cl)c(Cl)c1
  -0.4 | 0.0617 | 36.5 | -0.6
> O=C(Cn1cnc2ccccc2c1=O)Nc1ccccc1Cl
  · | · | -11.6 | 1.4
> CC12CCC(=O)C=C1CCC1(C)C2(C)CCC2(C)C(C(=O)CO)CCC21C (centres undefined)
  46.7 | -0.0259 | 30.2 | -7.8
> COc1ccc(CN(C)C[C@H]2Oc3c(NC(=O)C4CCOCC4)cccc3C(=O)N([C@@H](C)CO)C[C@@H]2C)cc1
  21.1 | -0.0185 | 7.2 | 0.1
> COc1ccc(S(=O)(=O)Nc2ccc3c(c2)C(=O)N([C@@H](C)CO)C[C@@H](C)[C@@H](CN(C)CC2CC2)O3)cc1
  23.8 | -0.285 | -1.7 | 0.7
> CC(C)NC(=O)N(C)C[C@@H]1Oc2ccc(NC(=O)Nc3ccc(F)cc3)cc2C(=O)N([C@H](C)CO)C[C@H]1C
  -12.3 | 0.363 | -9.0 | 1.0
> CSc1nnc(Cc2ccccc2)c(=O)[nH]1
  · | 0.0666 | 15.8 | 1.0
> C[C@H](CO)N1C[C@H](C)[C@H](CN(C)S(C)(=O)=O)Oc2ccc(NS(=O)(=O)c3ccccc3)cc2C1=O
  -6.5 | 0.353 | 1.1 | 0.7
> C[C@@H]1CN([C@@H](C)CO)C(=O)c2cccc(NS(=O)(=O)c3ccc(F)cc3)c2O[C@@H]1CN(C)S(=O)(=O)c1ccc(F)cc1
  21.5 | -0.372 | -13.7 | -3.4
> C[C@@H]1CN([C@@H](C)CO)C(=O)c2cccc(NC(=O)CCCCCC(=O)Nc3ccccc3N)c2O[C@@H]1CN(C)S(=O)(=O)c1cn(C)cn1
  · | -0.0269 | -4.5 | 0.3
> COc1c(CCC(=O)O)c(O[C@@H]2O[C@H](CO)[C@@H](O)[C@H](O)[C@H]2O)cc2occc12
  -9.4 | -0.127 | · | ·
> C[C@H]1CN([C@@H](C)CO)C(=O)c2cc(NC(=O)Nc3cccc4ccccc34)ccc2O[C@H]1CN(C)Cc1ccc(Cl)c(Cl)c1
  · | -0.232 | 34.1 | -2.2
> C[C@@H]1CN([C@@H](C)CO)C(=O)c2cccc(NC(=O)C3CC3)c2O[C@H]1CN(C)Cc1ccc2c(c1)OCO2
  21.6 | 0.822 | 2.5 | ·
> COc1ccc(NC(=O)Nc2cccc3c2O[C@H](CN(C)C(=O)Nc2ccc(F)cc2)[C@@H](C)CN([C@H](C)CO)C3=O)cc1
  -1.8 | 0.407 | -12.9 | 0.9
> Cc1ccc(NC(=O)CN(c2ccc(Cl)c(C(F)(F)F)c2)S(C)(=O)=O)cc1
  · | · | -6.6 | -6.8
> C[C@H](CO)N1C[C@H](C)[C@@H](CN(C)Cc2ccc(C(=O)Nc3ccccc3N)cc2)Oc2c(NC(=O)c3cnccn3)cccc2C1=O
  · | -0.19 | 15.9 | -2.1
> C[C@H]1CN([C@@H](C)CO)C(=O)c2cccc(N(C)C)c2O[C@H]1CN(C)C(=O)Nc1ccc(F)cc1
  -15.1 | -0.0665 | -7.3 | ·
> COc1ccc(S(=O)(=O)N(C)C[C@@H]2Oc3c(NC(=O)Nc4cccc5ccccc45)cccc3C(=O)N([C@H](C)CO)C[C@@H]2C)cc1
  25.6 | -0.234 | -4.6 | ·

In the list so far, 3 contain an aryl thioether with sulfur outside any ring.
Below each SMILES – Shh pathway inh | YB-1 expr inh | MITF inhib | PD-1 reversal
> CCn1c(SCC(=O)Nc2cccc(C(=O)O)c2)nnc1-c1ccc(Cl)cc1Cl
  · | · | -18.8 | 1.6
> CCn1c(SCC(=O)Nc2ccc(I)cc2C)nnc1-c1ccccc1
  · | · | 5.0 | 0.3
> CSc1nnc(Cc2ccccc2)c(=O)[nH]1
  · | 0.0666 | 15.8 | 1.0

Continuation.
Below each SMILES – Shh pathway inh | YB-1 expr inh | MITF inhib | PD-1 reversal
> C[C@@H]1CN([C@H](C)CO)C(=O)Cc2cc(N(C)C)ccc2O[C@H]1CN(C)S(=O)(=O)c1ccccc1
  -6.4 | -0.114 | -3.5 | -0.4
> CCOC(=O)c1ccc(NC(=O)CSc2nc3sc4c(c3c(=O)[nH]2)CCC4)cc1
  · | · | -2.1 | -1.1
> C[C@@H]1CN([C@H](C)CO)C(=O)c2cc(NC(=O)CCC(F)(F)F)ccc2O[C@H]1CN(C)Cc1ccc(C(=O)O)cc1
  · | -0.389 | -9.9 | 1.6
> C[C@@H]1CN([C@@H](C)CO)C(=O)Cc2cc(NC(=O)C3CC3)ccc2O[C@@H]1CN(C)S(=O)(=O)c1cn(C)cn1
  34.3 | -0.0465 | 0.8 | 2.8
> CC(C)NC(=O)N(C)C[C@H]1Oc2ccc(NC(=O)c3ccncc3)cc2C(=O)N([C@H](C)CO)C[C@H]1C
  · | -0.352 | -3.4 | 0.1
> C[C@@H]1O[C@@H](OC[C@H]2O[C@@H](Oc3ccc(O)cc3)[C@H](O)[C@@H](OC(=O)c3ccc(O)cc3)[C@@H]2O)[C@H](O)[C@H](O)[C@H]1O
  -47.5 | -0.141 | -1.2 | 0.7
> C[C@H]1CN([C@@H](C)CO)C(=O)c2cccc(NC(=O)Nc3ccc(F)cc3)c2O[C@@H]1CN(C)C(=O)Nc1cccc2ccccc12
  11.9 | -0.102 | 3.6 | 2.2
> COc1cc(C=O)cc2c1[nH]c1ccccc12
  7.7 | 0.819 | -0.5 | -2.0
> C[C@H](CO)N1C[C@H](C)[C@@H](CN(C)Cc2ccccc2)Oc2ccc(NS(C)(=O)=O)cc2C1=O
  -0.8 | 0.000826 | 7.6 | 1.8
> Cc1ccc(C(=O)C2C(=O)C(=O)N(Cc3cccnc3)C2c2cccc(Oc3ccccc3)c2)o1 (centres undefined)
  · | · | 6.1 | 1.4

Additional records:
Structure | Shh pathway inh | YB-1 expr inh | MITF inhib | PD-1 reversal
Clc1ccc(Cn2ncc3c(NCCN4CCOCC4)ncnc32)cc1 | · | · | 0.0 | 0.2
COc1cc2c(cc1O)C1(Cc3ccc4c(c3C1=O)OCO4)N(C)CC2 (centres undefined) | -0.3 | 0.468 | 8.2 | -0.1
Cc1[nH]ccc2c1[nH]c1cc(=O)ccc12 | 51.5&-26.6 | -0.501&0.448 | -12.8&2.3 | 2.4
COc1cc(C2Oc3c(OC)cc(CCCO)cc3C2CO)ccc1O[C@H]1O[C@H](C)[C@@H](O)[C@H](O)[C@@H]1O (some centres undefined) | -35.5 | -0.515 | -68.3 | 0.8
Cc1sc2ncnc(SCC(=O)Nc3ccccc3)c2c1-c1ccccc1 | · | · | 30.1 | -4.2
Cc1noc(C)c1NC(=O)Nc1ccc2c(c1)CC(=O)N([C@H](C)CO)C[C@@H](C)[C@H](CN(C)C(=O)Nc1ccc(F)cc1)O2 | 30.1 | 0.555 | 4.8 | 0.8
C[C@@H]1CN([C@H](C)CO)C(=O)Cc2cc(NC(=O)CCCCCC(=O)Nc3ccccc3N)ccc2O[C@@H]1CN(C)S(=O)(=O)c1ccccc1 | · | -0.128 | -9.9 | 0.6
CCOC(=O)c1sc(NC(=O)CSc2nc3c(cc2C#N)CCC3)c(C#N)c1C | · | · | 45.4 | 2.1
Oc1ccc(/C=N/c2nccs2)cc1 | -1.7 | -0.108 | -16.9 | -1.5
C[C@@H]1CN([C@@H](C)CO)C(=O)c2cc(NS(=O)(=O)c3cccs3)ccc2O[C@H]1CN(C)Cc1ccc(Oc2ccccc2)cc1 | 20.6 | 0.0472 | 10.1 | ·
C[C@@H]1CN([C@H](C)CO)C(=O)c2cc(NC(=O)Cn3cnnn3)ccc2O[C@@H]1CN(C)Cc1ccc2c(c1)OCO2 | -63.2 | 0.167 | 0.2 | ·
CC1(C)CC(O)CC2(C)OC(=O)C=C12 (centres undefined) | -13.8 | -1.24 | 37.7 | 2.1
CCOC(=O)C1C(=O)C(=O)Nc2ccccc21 (centres undefined) | 0.5 | 0.0391 | 15.5 | 1.5
COc1cc(/C=C2\Oc3cc(O)cc(O)c3C2=O)cc(OC)c1O | -37.9 | -0.0274 | 54.0 | 2.0
CC(C)NC(=O)Nc1cccc2c1O[C@H](CN(C)S(=O)(=O)c1ccc(F)cc1)[C@H](C)CN([C@@H](C)CO)C2=O | -4.0 | 0.012 | 3.1 | 0.3
C[C@H](CO)N1C[C@H](C)[C@H](CN(C)Cc2ccc(C(=O)O)cc2)Oc2ccc(NC(=O)C3CCCCC3)cc2CC1=O | -42.8 | -0.287 | -2.8 | -0.4
Cc1cc(C(=O)Nc2cccc3c2O[C@@H](CN(C)C(=O)Nc2ccc(C(F)(F)F)cc2)[C@@H](C)CN([C@H](C)CO)C3=O)n(C)n1 | 19.2 | -0.392 | -5.8 | -3.7
C[C@@H]1CN([C@H](C)CO)C(=O)c2cccc(NC(=O)CCCCCC(=O)Nc3ccccc3N)c2O[C@@H]1CN(C)S(=O)(=O)c1ccccc1 | · | -0.0976 | -1.7 | -0.7
Cc1ccc(C(C)C)cc1OCC(O)Cn1c(C)nc2ccccc21 (centres undefined) | · | · | 54.9 | -7.6
Cn1c(=O)c2c(ncn2CC(O)CO)n(C)c1=O (centres undefined) | -10.0 | -0.304 | 22.7 | ·
COC(=O)c1sc2c(C)cc(Cl)c(C)c2c1C(=O)Oc1ccccc1 | -18.1 | -0.0858 | 11.1 | -0.7
Cc1ccc(-n2cnnn2)c(S(=O)(=O)N2CCOCC2)c1 | · | · | -16.5 | 0.2

Not all compounds are listed; the hit share may differ from the screen's.
